Bioassay records: PubChem, Broad Institute
ID4 SMM: ID4 (human) binding | P47928 | small molecule microarray, Flag-ID4 binding, fluorescence F/B | calls only | hit rate 1.2% among 31,000;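 active = spot signal over background at p below 0.07 in all four prints; compounds were printed on slides so no solution concentration is given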;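 note: a binder raises fluorescence above local background on the spot; about 2 pmol printed per array spot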
Target sequence (P47928 whole entry, looked up): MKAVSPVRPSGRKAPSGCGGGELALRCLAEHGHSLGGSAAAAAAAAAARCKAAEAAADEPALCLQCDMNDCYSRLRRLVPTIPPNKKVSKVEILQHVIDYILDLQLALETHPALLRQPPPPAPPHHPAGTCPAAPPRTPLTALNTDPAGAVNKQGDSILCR
Calls only; i = inactive.

SMILES	ID4 SMM
C[C@@H]1CN([C@@H](C)CO)S(=O)(=O)c2ccc(Br)cc2O[C@H]1CN(C)Cc1ccccc1	i
CS(=O)(=O)N(CC(=O)Nc1ccc(Br)cc1)c1ccc(Cl)c(C(F)(F)F)c1	i
CN1CCN(c2ccccc2NC(=O)COc2ccc(Cl)cc2)CC1	i
C[C@@H](NC(=O)C[C@H]1C=C[C@H](NC(=O)C2CC2)[C@@H](CO)O1)c1ccccc1	i
O=C(O)CCCC(=O)Nc1cccc2ccccc12	i
CCN(CC)CCOC(=O)c1cc(Cl)c(N)cc1OC	i
CCc1nc2sc3c(c2c2nnc(SCC(=O)Nc4ccccc4)n12)CCC3	i
CCn1c(SCC(=O)c2ccc(OC)cc2)nnc1-c1cccs1	i
OC1COC(OCC2OC(OCc3ccccc3)C(O)C(O)C2O)C(O)C1O (configuration not stated)	i
CC(C)[C@H](C)NC(=O)N(C)C[C@@H]1OCc2ccccc2-c2ccccc2C(=O)N([C@@H](C)CO)C[C@H]1C	i
C[C@@H]1CN([C@H](C)CO)C(=O)c2cc(-c3ccc(F)cc3)cnc2O[C@@H]1CN(C)C(=O)CN(C)C	i
COc1ccccc1NC(=O)C1=C(C)Nc2nnnn2C1c1cccnc1 (configuration not stated)	i
Cc1noc(C)c1NC(=O)N[C@@H]1C=C[C@H](CC(=O)NCc2ccc(Cl)c(Cl)c2)O[C@H]1CO	i
Cc1ccc(S(=O)(=O)NCC(=O)Nc2cccc([N+](=O)[O-])c2)cc1	i
c1ccc(CCNc2ncnc3scc(C4COc5ccccc5O4)c23)cc1 (configuration not stated)	i
COc1ccc(-c2ccc3c(c2)O[C@@H](CN(C)C)[C@H](C)CN([C@H](C)CO)S3(=O)=O)cc1	i
O=C(c1ccco1)N(Cc1ccco1)c1ccc(O)cc1	i
O=C(N[C@H]1C=C[C@@H](CC(=O)N2CCOCC2)O[C@H]1CO)c1ccc2c(c1)OCO2	i
C/C(=N\O)C(C)(C)Nc1cc(C(F)(F)F)cc(C(F)(F)F)c1	i
Cc1cc(C)c(O)c(C2(O)C(=O)c3ccccc3C2=O)c1	i
CNC[C@H]1Oc2ncc(-c3ccccc3F)cc2C(=O)N([C@@H](C)CO)C[C@H]1C	i
Cc1cc(C)nc(NS(=O)(=O)c2ccc(N)cc2)n1	i
COC(=O)c1cc(NC(=O)CN(c2ccc(F)c(Cl)c2)S(C)(=O)=O)ccc1Cl	i
O=C(CSc1nc2ccccc2c(=O)n1-c1ccc(Cl)cc1)Nc1cccc(Cl)c1	i
Cc1cc(C)c(S(=O)(=O)N(CC(=O)Nc2ccc(C(N)=O)cc2)C2CCCCC2)c(C)c1	i
C[C@@H]1CN([C@@H](C)CO)C(=O)c2ccccc2-c2ccccc2CO[C@H]1CN(C)C(=O)c1ccncc1	i
CCCN(C)C[C@H]1Oc2cc(-c3ccccc3F)ccc2S(=O)(=O)N([C@H](C)CO)C[C@H]1C	i
COCC#Cc1cnc2c(c1)C(=O)N([C@@H](C)CO)C[C@@H](C)[C@H](CN(C)C(=O)c1cnccn1)O2	i
C[C@@H]1CN([C@@H](C)CO)S(=O)(=O)c2ccc(C#Cc3cccnc3)cc2O[C@@H]1CN(C)CC1CCOCC1	i
Cc1ccc(-c2ccc(CCC(=O)O)n2CC2CCCO2)cc1 (configuration not stated)	i
NC(=O)C1(N2CCCCC2)CCN(CC(=O)Nc2ccc(Cl)cc2)CC1	i
CC(Sc1ncnc2sc3c(c12)CCCC3)C(=O)Nc1cc(C(F)(F)F)ccc1Cl (configuration not stated)	i
COC(=O)c1cccc(NC(=O)COc2cc(C)ccc2C)c1	i
C[C@@H](NC(=O)C[C@H]1CC[C@H](NC(=O)C2CCC2)[C@@H](CO)O1)c1ccccc1	i
COc1ccc(N(CC(=O)Nc2ccc(C)cc2C)S(C)(=O)=O)cc1	i
O=C(CC1C(=O)NCCN1C(=O)Nc1ccccc1)Nc1cccc(C(F)(F)F)c1 (configuration not stated)	i
COC(=O)COc1cccc(NC(=O)c2cc(OC)cc(OC)c2)c1	i
COc1ccccc1-n1c(SCC(=O)c2ccc(Cl)cc2)nc2ccccc2c1=O	i
Cc1ccc(Cl)cc1NC(=O)CSc1cc(C)c2cccc(C)c2n1	i
C/C=C/c1cnc2c(c1)C(=O)N([C@H](C)CO)C[C@@H](C)[C@@H](CN(C)C(=O)c1cccnc1)O2	i
O=C(NCc1ccccn1)C(=O)Nc1cccc(Cl)c1Cl	i
C[C@@H]1CN([C@H](C)CO)C(=O)c2cc(C#CC3(O)CCCC3)cnc2O[C@@H]1CN(C)C(=O)Cc1cccnc1	i
COc1ccc(NC(=O)N[C@H]2CC[C@@H](CC(=O)NCc3ccccn3)O[C@@H]2CO)cc1	i
Cn1c(=O)c2c(nc(SCC(=O)NC(C)(C)C)n2Cc2ccccc2F)n(C)c1=O	i
C[C@@H]1CN([C@H](C)CO)C(=O)c2cc(-c3cccc(F)c3)cnc2O[C@@H]1CN(C)Cc1ccncc1	i
CNC[C@@H]1Oc2cc(-c3ccc(C(=O)N(C)C)cc3)ccc2S(=O)(=O)N([C@H](C)CO)C[C@H]1C	i
CCOC(=O)c1c(NC(=O)CSc2ncn[nH]2)sc2c1CCCC2	i
CN(C)c1ccc2c(c1)[C@@H]1C[C@@H](CC(=O)NCc3cccc(F)c3)O[C@H](CO)[C@@H]1O2	i
O=C(NCc1ccco1)C1CC(c2ccc(Cl)c(Cl)c2)=NO1 (configuration not stated)	i
O=[N+]([O-])c1cccc(S(=O)(=O)NCCOc2cccc3cccnc23)c1	i
O=C(C[C@@H]1C=C[C@@H](NC(=O)C2CC2)[C@@H](CO)O1)NCC1CC1	i
Cc1ccc(-c2ccc3c(c2)O[C@@H](CN(C)CC2CC2)[C@@H](C)CN([C@H](C)CO)S3(=O)=O)cc1	i
CC(=O)N(C)C[C@@H]1OCc2ccccc2-c2c(n(C)c3ccccc23)C(=O)N([C@H](C)CO)C[C@@H]1C	i
C[C@@H]1CN([C@H](C)CO)C(=O)c2cc(-c3ccccc3)cnc2O[C@@H]1CN(C)C(=O)c1ccccc1F	i
C[C@H](CO)N1C[C@H](C)[C@@H](CN(C)C(=O)c2ccccc2)Oc2ncc(C3=CCCC3)cc2C1=O	i
O=C(C[C@@H]1C=C[C@H](NC(=O)C2CC2)[C@@H](CO)O1)NCc1ccccc1Cl	i
CO[C@@H](CN(C)C(=O)c1ccc2c(c1)OCO2)[C@H](C)CN([C@@H](C)CO)S(=O)(=O)c1ccc(C)cc1	i
COc1ccc(-c2cnc3c(c2)C(=O)N([C@H](C)CO)C[C@@H](C)[C@@H](CN(C)C)O3)cc1	i
O=c1oc2ccccc2c2c1ncn2CCN1CCCC1	i
O=C(CCN1C(=O)c2ccccc2C1=O)Nc1ccc([N+](=O)[O-])cc1	i

(more compounds)
SMILES	ID4 SMM
C[C@H]1CN([C@@H](C)CO)S(=O)(=O)c2ccc(Br)cc2O[C@H]1CN(C)Cc1ccncc1	i
CCCN(C)C[C@@H]1Oc2ncc(C#Cc3ccccc3OC)cc2C(=O)N([C@H](C)CO)C[C@@H]1C	i
C[C@@H](NC(=O)C[C@@H]1CC[C@H](NC(=O)C2CCC2)[C@@H](CO)O1)c1ccccc1	i
COC(=O)c1cccc(NC(=O)COc2cccc([N+](=O)[O-])c2)c1	i
CO[C@@H](CN(C)C(=O)Nc1ccc(C(F)(F)F)cc1)[C@H](C)CN(Cc1ccccc1Cl)[C@H](C)CO	i
C[C@@H]1CN([C@H](C)CO)S(=O)(=O)c2ccc(C#Cc3cccc(F)c3)cc2O[C@H]1CN(C)C	i
COC(=O)c1noc(C)c1C(=O)/C=C/N(C)C	i
CC(=O)Nc1ccc(OCC(=O)Nc2ccc3c(c2)oc2ccccc23)cc1	i
COc1ccc(S(=O)(=O)NCc2ccco2)c2ccccc12	i
CC(C)NC(=O)N(C)C[C@H]1Oc2ncc(-c3ccccc3F)cc2C(=O)N([C@H](C)CO)C[C@H]1C	i
CCOC(=O)c1c(SC)nc2c(C(F)(F)F)cccc2c1N1CCCC1	i
Cc1cccc(OCC(=O)Nc2cccc(-c3nc4cc(C)ccc4o3)c2)c1	i
CC(=O)N(C)C[C@@H]1Oc2ncc(C#Cc3ccccc3)cc2C(=O)N([C@H](C)CO)C[C@H]1C	i
O=C(CN1C(=O)c2cccc3cccc1c23)Nc1ccc(S(=O)(=O)N2CCCCC2)cc1	i
CN(c1cccc(NC(=O)c2ccccc2N(C)S(=O)(=O)c2ccccc2)c1)S(C)(=O)=O	i
CCn1c(=O)c2c3c(sc2n2c(SCC(=O)Nc4ccc(Cl)cc4)nnc12)CCCC3	i
Cc1ccc(C)c(NC(=O)Cn2cnc3ccccc3c2=O)c1	i
C[C@@H]1CN([C@H](C)CO)C(=O)c2cc(N(C)C)ccc2O[C@@H]1CN(C)CC1CCCCC1	i
Cc1ccc(N(CC(=O)Nc2c(C)cc(C)cc2C)S(C)(=O)=O)cc1	i
Cc1cc(=O)[nH]c(SCC(=O)Nc2cc([N+](=O)[O-])ccc2C)n1	i
O=C(C[C@@H]1CC[C@H](NC(=O)Nc2ccc(F)cc2)[C@H](CO)O1)NCc1cccc(F)c1	i
O=C(Nc1ccc(Br)cc1)C1CN(S(=O)(=O)c2ccccc2)CCN1S(=O)(=O)c1ccccc1 (configuration not stated)	i
CC(=O)N(C)C[C@H]1Oc2ncc(-c3cccc(F)c3)cc2C(=O)N([C@H](C)CO)C[C@@H]1C	i
C[C@H]1CN([C@@H](C)CO)C(=O)c2cc(C3=CCCCC3)cnc2O[C@H]1CN(C)C(=O)c1ccccn1	i
C[C@H]1CN([C@@H](C)CO)C(=O)c2cccc(NC(=O)C3CC3)c2O[C@@H]1CN(C)CC1CC1	i
C[C@H]1CN([C@@H](C)CO)C(=O)c2cc(-c3cccc(F)c3)cnc2O[C@H]1CN(C)C(=O)C1CCC1	i
c1ccc(CCc2nn3c(Cn4cnc5ccccc54)nnc3s2)cc1	i
CCOC(=O)c1ccccc1NC(=O)COc1ccccc1C	i
COc1ccc(-n2c(SCCCN3C(=O)c4cccc5cccc(c45)C3=O)nnc2-c2cccnc2)cc1	i
CCN1CCN(Cc2c(C)[nH]c3ccc(C(=O)OC)cc3c2=O)CC1	i
CCn1c(SCc2nc3ccccc3c(=O)[nH]2)nnc1-c1ccc(Cl)cc1	i
COc1ccc(Oc2ccc(NC(=O)CCC(=O)O)cc2)cc1	i
Cc1ccc(-c2cc(C(=O)Nc3cc(C)nn3-c3ccccc3)no2)cc1	i
CCn1c(SCC(=O)Nc2ccc(Br)cc2C)nnc1-c1ccccc1F	i
C[C@@H]1CN([C@H](C)CO)C(=O)CCCn2nncc2CO[C@@H]1CN(C)Cc1ccccc1C(F)(F)F	i
Cc1ccc(-c2nnc3c4ccccc4c(C)nn23)cc1S(=O)(=O)NC1CCCCC1	i

Another view of some results above:
smiles | ID4 SMM
C[C@@H]1CN([C@@H](C)CO)S(=O)(=O)c2ccc(Br)cc2O[C@H]1CN(C)Cc1ccccc1 | i
CS(=O)(=O)N(CC(=O)Nc1ccc(Br)cc1)c1ccc(Cl)c(C(F)(F)F)c1 | i
CN1CCN(c2ccccc2NC(=O)COc2ccc(Cl)cc2)CC1 | i
C[C@@H](NC(=O)C[C@H]1C=C[C@H](NC(=O)C2CC2)[C@@H](CO)O1)c1ccccc1 | i
O=C(O)CCCC(=O)Nc1cccc2ccccc12 | i
CCN(CC)CCOC(=O)c1cc(Cl)c(N)cc1OC | i
CCc1nc2sc3c(c2c2nnc(SCC(=O)Nc4ccccc4)n12)CCC3 | i
CCn1c(SCC(=O)c2ccc(OC)cc2)nnc1-c1cccs1 | i
OC1COC(OCC2OC(OCc3ccccc3)C(O)C(O)C2O)C(O)C1O (configuration not stated) | i
CC(C)[C@H](C)NC(=O)N(C)C[C@@H]1OCc2ccccc2-c2ccccc2C(=O)N([C@@H](C)CO)C[C@H]1C | i
C[C@@H]1CN([C@H](C)CO)C(=O)c2cc(-c3ccc(F)cc3)cnc2O[C@@H]1CN(C)C(=O)CN(C)C | i
COc1ccccc1NC(=O)C1=C(C)Nc2nnnn2C1c1cccnc1 (configuration not stated) | i
Cc1noc(C)c1NC(=O)N[C@@H]1C=C[C@H](CC(=O)NCc2ccc(Cl)c(Cl)c2)O[C@H]1CO | i
Cc1ccc(S(=O)(=O)NCC(=O)Nc2cccc([N+](=O)[O-])c2)cc1 | i
c1ccc(CCNc2ncnc3scc(C4COc5ccccc5O4)c23)cc1 (configuration not stated) | i

Continued.
SMILES	ID4 SMM
C[C@@H]1CN([C@@H](C)CO)C(=O)CCCn2nncc2CO[C@@H]1CN(C)CC1CCCCC1	i
CSc1nc(N2CCCCC2)c2c(c1C#N)CCCC2	i
COC(=O)c1cc(NC(=O)CSc2nc(Nc3ccccc3)nc(N3CCOCC3)n2)ccc1Cl	i
COC(=O)c1ccccc1NC(=O)c1ccccc1N(C)S(=O)(=O)c1ccccc1	i
COc1ccccc1NC(=O)N[C@@H]1CC[C@@H](CC(=O)N2CCC(Cc3ccccc3)CC2)O[C@@H]1CO	i
Cc1cccc(C)c1NC(=O)CCn1cnc2ccccc2c1=O	i
COc1cccc(CO)c1OCC(=O)Nc1ccc(F)cc1	i
COc1ccc(N2C(=O)CC(SCCc3nc4ccccc4[nH]3)C2=O)cc1 (configuration not stated)	i
CC(C)(C)c1cc(C(C)(C)C)cc(S(=O)(=O)CCc2ccccn2)c1	i
CC(C)CC#Cc1cnc2c(c1)C(=O)N([C@H](C)CO)C[C@H](C)[C@@H](CN(C)Cc1ccccc1C(=O)O)O2	i
Cc1cc(C(F)(F)F)nc(SCC(=O)Nc2ccc(I)cc2)c1C#N	i
CCN(CC(=O)Nc1cccc(Cl)c1C)S(=O)(=O)c1ccc(OC)cc1	i
C[C@H](CO)N1C[C@H](C)[C@@H](CN(C)C(=O)C2CC2)OCc2ccccc2-c2ccccc2C1=O	i
CC(=O)N(C)C[C@H]1Oc2ncc(C#CCc3ccccc3)cc2C(=O)N([C@H](C)CO)C[C@H]1C	i
COC(=O)c1c(C)oc2ccc(N(C(=O)c3ccncc3)S(=O)(=O)c3ccc(OC)cc3)cc12	i
CCOC(=O)c1c(C)cc(O)c(C)c1O	i
Cc1nc(-c2ccccc2)sc1C(=O)C1C(=O)C(=O)N(CCN2CCOCC2)C1c1ccccc1F (configuration not stated)	i
CC(=O)N(C)C[C@@H]1Oc2ncc(C#Cc3cccnc3)cc2C(=O)N([C@H](C)CO)C[C@@H]1C	i

This is a subset. The share of hits here may be higher or lower than overall.
